Source: PubChem BioAssay (several laboratories)
MLL AF4-AF9 inh: blocks AF4 peptide binding to human AF9; 350,000 compounds, 0.47% hits; inhibition, % at 10 µM; AID 651704; AlphaScreen, biotin-AF4 peptide binding to FLAG-AF9; P42568;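 active means every replicate reaching a set inhibition limit, whatever the replicate mean, cut at about 25% in these data; inconclusive means mean inhibition reaches that limit but some replicates miss it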;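 further: 0% = plate neutral control median and 100% = total signal loss; the record names both 10 and 1 µM as test concentration; the first replicate is given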
Target sequence (P42568 whole entry, looked up): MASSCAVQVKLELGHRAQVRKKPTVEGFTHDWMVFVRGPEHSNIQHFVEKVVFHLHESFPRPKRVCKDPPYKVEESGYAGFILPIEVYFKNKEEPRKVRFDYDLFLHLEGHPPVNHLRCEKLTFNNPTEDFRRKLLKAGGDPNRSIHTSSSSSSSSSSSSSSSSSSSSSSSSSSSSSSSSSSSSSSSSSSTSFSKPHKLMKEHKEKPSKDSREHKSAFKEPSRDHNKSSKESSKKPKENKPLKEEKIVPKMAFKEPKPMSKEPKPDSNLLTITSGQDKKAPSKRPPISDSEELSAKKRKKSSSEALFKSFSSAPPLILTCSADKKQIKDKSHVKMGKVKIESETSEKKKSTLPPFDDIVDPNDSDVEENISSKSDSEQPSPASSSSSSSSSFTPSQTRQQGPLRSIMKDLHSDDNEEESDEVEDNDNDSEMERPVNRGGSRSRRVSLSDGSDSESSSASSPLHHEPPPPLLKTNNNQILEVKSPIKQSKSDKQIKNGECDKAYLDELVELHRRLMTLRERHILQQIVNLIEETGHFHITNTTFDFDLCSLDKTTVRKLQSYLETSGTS
RanGTP-Imp inh: inhibitors of RanGTP-importin-beta interaction, primary screen, biochemical, FRET, CFP-Ran, YFP-importin-beta, homogeneous; inhibition, % (no concentration beside the values); 300,000 compounds, 1.1% hits; cell-free CFP-Ran/YFP-importin-beta FRET ratio;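 active means most replicates above 15%; inconclusive means exactly half above 15%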;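 further: 0% = DMSO wells and 100% = Ran loaded with GDP instead of GTP; wells of about 40 µL received 100 nL stock; the first replicate is given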
Ecoli growth: E. coli growth inhibition. OD600 absorbance (no concentration beside the values). 330,000 compounds, 0.21% hits. Escherichia coli growth, OD600, 23 h; hits give low values. AID 1053175;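 active means OD600 absorbance below the run mean of sample wells minus 3.6 SD, in any replicate, cut at about 0.56 in these data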;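 further: stock transfer was 300 nL into about 60 µL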
HNF4A DNA FP: change in binding of human HNF4 alpha to DNA; P41235; AID 1224865; activity change, % at 10 µM; 360,000 compounds, 0.3% hits; HNF4a-FITC DNA binding, fluorescence polarization, 1 h; in the data active means activity change above about 30%, passing the limit was not always enough;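 further: controls were the assay level and a saturating level of protein; the project sought stronger binding though the title names inhibitors; some compounds called inactive have numbers as strong as hits; positive values seem to mean higher polarization but the record does not say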
Target sequence (P41235 whole entry, looked up): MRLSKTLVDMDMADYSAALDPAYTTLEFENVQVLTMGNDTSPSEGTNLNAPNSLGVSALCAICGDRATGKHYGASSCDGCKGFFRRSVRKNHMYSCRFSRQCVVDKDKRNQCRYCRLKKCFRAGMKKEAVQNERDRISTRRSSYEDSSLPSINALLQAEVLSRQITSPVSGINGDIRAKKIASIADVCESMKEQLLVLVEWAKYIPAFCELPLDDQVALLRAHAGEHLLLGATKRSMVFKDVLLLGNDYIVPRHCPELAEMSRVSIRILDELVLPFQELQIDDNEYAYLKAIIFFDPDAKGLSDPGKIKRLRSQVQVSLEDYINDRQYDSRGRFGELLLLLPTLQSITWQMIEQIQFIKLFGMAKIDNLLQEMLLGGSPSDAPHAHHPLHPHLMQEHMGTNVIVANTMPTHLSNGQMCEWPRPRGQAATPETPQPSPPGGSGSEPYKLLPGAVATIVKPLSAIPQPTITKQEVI
FGF22 binding: binders of recombinant human FGF22 by thermal shift. Q9HCT0. calls only at 9.99 µM. AID 651658. 340,000 compounds, 1.5% hits. SYPRO orange fluorescence; percent of sucrose octasulfate shift, DMSO zero;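 active means melting point raised past a set limit in the mean and every replicate; inconclusive means no clear call; three in four hits are not shown here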
UCH37 DUB inh: inhibitors of human deubiquitinating enzyme UCH37. Q9Y5K5. purified proteasome/UCH37, Ub-AMC cleavage fluorescence. inhibition, % (concentration not given with the values). 330,000 compounds, 0.33% hits;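 active means mean of two replicates above 20%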;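 further: 0% = compound-free wells with enzyme and 100% = wells lacking proteasome; stock transfer was 100 nL into about 20 µL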
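Test system – human UCH37 enzyme supplied as purified proteasome complex · Incubation – 30 min preincubation with enzyme, 25 min cleavage at room temperature · Detection – AMC fluorescence from Ub-AMC cleavage, excitation 355 nm, emission 460 nm · Benchmarks – no-proteasome wells (full inhibition) and compound-free wells (no inhibition)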
Vif A3G: inhibitors of Vif binding to APOBEC3G peptide, primary screen, biochemical, TR-FRET, GST-Vif 1-94, biotin-A3G peptide, dose response retest (AID 1117319) | 260,000 compounds, 0.57% hits | TR-FRET GST-Vif / biotin-A3G peptide binding; higher % means a stronger effect; test concentration not given here; strong numbers were not always called active | inhibition, %; hits with a dose series show IC50 in µM;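 active means above the screen mean plus three standard deviations and confirmed in dose response; inconclusive means results disagree or hit not tested in dose response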;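 further: Vif residues 1-94 fused to GST binding biotinylated APOBEC3G peptide 110-148; 0% = full assay without inhibitor and 100% = GST in place of GST-Vif; retest series ran down from 100 µM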
Numbers without * were called inactive; i = inactive; ? = inconclusive; nt = not tested or not shown; & = joins results of further samples. The list is partial; rates above refer to the full screens.

Each structure is followed by: MLL AF4-AF9 inh, HNF4A DNA FP, FGF22 binding, UCH37 DUB inh, Vif A3G, Ecoli growth, RanGTP-Imp inh
COc1ccc(OC)c(NC(=O)Cn2cccc2)c1
 : 8.3, -1.6, i, 1.4, 30%, 0.67, -6.7
CCC1CCCCN1C(=O)c1c(-c2ccccc2)noc1C (centres undefined)
 : nt, -1.7, nt, -4.0, 10%, 0.74, -1.6
CC(=O)Nc1ccc(NC(=O)C(C)n2nc(C)c([N+](=O)[O-])c2C)cc1 (centres undefined)
 : 2.9, 1.5, i, 3.3, 3%, 0.68, -3.7
O=C(COC(=O)CCc1ccccc1)NC(c1ccccc1)c1ccccc1
 : -29, -2.2, i, 1.6, 5%, 0.69, -1.7
CCOc1ccc(S(=O)(=O)NN=C(C)c2cccnc2)cc1
 : 1.0, -1.8, i, 1.5, nt, 0.65, nt
CC(=O)c1c(C)[nH]c(C(=O)OCC(=O)c2c[nH]c3ccccc23)c1C
 : -0.5, -1.9, i, 7.5, nt, 0.6, nt
Cc1occc1C(=O)N/N=C/c1c[nH]c2ccccc12
 : 7.0, -1.2, i, nt, 13%, nt, 2.9
COc1ccc(CN(C)C[C@H]2OCCCC[C@@H](C)Oc3ccc(NC(=O)c4ccccc4)cc3C(=O)N([C@H](C)CO)C[C@@H]2C)cc1
 : 1.4&3.0, 2.5, i, nt, -1%, nt, nt
COC(OC)C1(C)C(C#N)=C(N)Oc2c1c(=O)oc1ccccc21 (centres undefined)
 : -0.6, 1.3, i, 4.0, 8%, 0.66, -1.1
COc1ccc(C(CNC(=O)CSc2ccc(Br)cc2)N2CCOCC2)cc1 (centres undefined)
 : -5.7, -3.4, i, 0.3, 0%, 0.68, 4.4
CCC(C)NC(=O)Cn1cc(S(=O)(=O)N2CCN(c3ccccc3F)CC2)c2ccccc2c1=O (centres undefined)
 : -0.3, 2.7, i, 0.6, 4%, 0.67, 0.4
CCC(C)C(NC(=O)c1ccccc1NC(=O)c1ccccc1)C(=O)N1CCOCC1 (centres undefined)
 : -0.9, -0.7, i, -0.9, 3%, 0.69, 4.3
Cc1cc2cc(C)c(NCCNC(=O)c3cccc(F)c3)nc2cc1C
 : -1.0, 3.5, i, -21, 2%, 0.66, 3.1
CC(C)(C)C(=O)N(Cc1ccc(Cl)cc1)c1cnccn1
 : -2.3, -1.9, i, 3.0, 5%, 0.67, ?
COc1cc(OC)cc(-c2nnc(SCC(=O)Nc3cccc(C(=O)O)c3)s2)c1
 : 0.8, -2.9, i, 5.5, -2%, 0.68, -1.0
CC(=O)NC12CC3CC(C1)CC(C(=O)N1CCN(S(=O)(=O)c4ccccc4C#N)CC1)(C3)C2
 : 14, -3.3, i, 2.5, -4%, 0.67, nt
Cc1ccccc1OCCNCC(C)O (centres undefined)
 : 0.8, 0.9, i, 2.6, 23%, 0.71, -1.8
O=C(Nc1ccc(Cl)c(Cl)c1)C1CCCCC1
 : -1.8, -4.3, i, 3.2, nt, 0.64, nt
CCOC(=O)c1c(NC(=O)COC)sc(C)c1C
 : nt, 1.2, nt, -1.7, -3%, 0.75, 6.3
CSc1ncccc1C(=O)NNC(=O)c1ccc(NS(=O)(=O)c2cccs2)cc1
 : -1.1, 1.1, i, 1.7, 1%, 0.62, ?
CCOC(=O)C1C(=O)NC(SCC(N)=O)=C(C#N)C1c1ccccc1OCC (centres undefined)
 : nt, 99*, nt, 4.6, -1%, 0.73, -7.6
CC(C)OC(=O)c1ccc(NC(=O)CSc2nc3ncccc3[nH]2)cc1
 : 1.0, 4.8, i, 4.0, -2%, 0.59, -7.2
Cc1ccc(S(=O)(=O)NNC(=O)c2sccc2-n2cccc2)cc1
 : nt, 0.1, nt, 0.8, 0%, 0.72, 1.7
CCN(C[C@H]1N[C@@](Cc2ccccc2)(C(=O)OC)[C@H]2C(=O)N(C)C(=O)[C@@H]12)C(=O)c1ccccc1
 : -0.2, -1.9, i, 2.6, -3%, 0.7, nt
COCCNC(=S)N1CCc2cc(OC)c(OC)cc2C1COc1ccc(F)cc1 (centres undefined)
 : 1.6, 5.1, i, 2.4, 5%, 0.67, -0.8
CC1(C)C(=O)Nc2ccccc2N1C(=O)COC(=O)CNS(=O)(=O)c1ccc(Br)cc1Cl
 : -0.2, -2.2, i, 1.6, nt, 0.71, nt
N/C(=N\OC(=O)CN1C(=O)c2ccccc2C1=O)c1ccc(Br)cc1
 : -2.9, -0.4, i, 1.8, -10%, 0.68, 8.7
Cc1cnc(C(=O)NC2CC(C)(C)Cc3c2cnn3-c2cccc(F)c2)cn1 (centres undefined)
 : 1.0, 0.7, i, nt, nt, nt, 4.1
COc1ccc(N2CCC(CNC(=O)Nc3cccc(OC)c3)C2)cc1 (centres undefined)
 : nt, 11, nt, 3.4, 2%, 0.7, -1.5
CCc1nnc(NS(=O)(=O)c2ccc(NC(=S)NC(=O)c3ccncc3)cc2)s1
 : -0.9, -0.4, i, 2.9, 3%, 0.69, 2.7
C=C(C)C1CC=C(C)/C(=N\NC(=O)CCC(=O)Nc2ccc(C)c(C)c2)C1 (centres undefined)
 : -0.4, 4.8, i, nt, 65%, nt, -2.6
COc1ccc(OC)c(C(=O)c2ccc(C(=O)N3CCCCC3)cc2)c1
 : nt, -0.9, nt, 2.6, 25%, 0.72, 4.3
NC[C@H](Cc1ccccc1)NCCc1cc(C(F)(F)F)cc(C(F)(F)F)c1
 : 4.4, 8.6, i, 4.9, nt, nt, nt
CS(=O)(=O)N(CCc1ccccc1)CC(=O)NCc1ccc(Cl)cc1
 : -2.3, -3.0, nt, 5.2, 2%, 0.67, 13
O=C1C(Cc2ccc(O)cc2)NC(=S)N1c1ccccc1 (centres undefined)
 : nt, -0.3, nt, 3.0, -2%, 0.71, -4.4
Cc1cc(Cl)ccc1N=c1ssnc1Cl
 : nt, -4.7, nt, -0.3, -6%, 0.73, 0.2
Cn1cc(S(=O)(=O)N2CCc3ccccc3C2)c(=O)n(C)c1=O
 : -2.1, 1.4, i, 2.3, 2%, 0.76, 0.3
CCn1ccnc1CN1CCN(CCC(C)C)C(CCO)C1 (centres undefined)
 : -1.5, 2.1, i, -1.0, 4%, 0.61, -2.0
Oc1oc(-c2ccco2)nc1C=Nc1cccc(Cl)c1
 : nt, 3.5, nt, 2.3, 6%, 0.68, -3.4
CCOc1cc(C=O)cc(Cl)c1OCC(N)=O
 : -1.0, 5.0, i, 4.8, 5%, 0.71, -2.0
COc1cc(C2c3[nH]c4ccccc4c3C[C@H]3C(=O)N(CCO)CC(=O)N23)cc(OC)c1OC (some centres undefined)
 : -0.1, 1.9, i, 2.3, -2%, 0.66, 0.9
COc1ccc(NC(=O)Nc2ccc3c(c2)C(=O)N([C@H](C)CO)C[C@H](C)[C@@H](CN(C)S(=O)(=O)c2ccc(F)cc2)O3)cc1
 : 5.2, 0.8, i, nt, nt, nt, nt
CCCn1ccnc1SCC(=O)Nc1c(C)n(C)n(-c2ccccc2)c1=O
 : -1.8, 1.1, i, 1.4, -2%, 0.68, nt
N/C(Cc1ccc(Cl)cc1Cl)=N\OC(=O)c1ccc(Br)o1
 : -0.2, -3.0, i, 3.6, 16%, 0.72, 1.6
CCOC(=O)N/N=C(/C)c1ccc([N+](=O)[O-])o1
 : 2.4, 2.7, i, nt, 1%, nt, 6.1
CC(C)CC(=O)Nc1ccccc1N1CCOCC1
 : nt, 0.8, nt, 3.7, -2%, 0.71, -3.3
COCCOC(=O)c1c(C)oc2ccc(NS(=O)(=O)c3ccc(F)cc3)cc12
 : ?, -2.1, i, 2.7, 4%, 0.64, -9.2
CC1(C)CC(=O)C(C(C#Cc2ccccc2)C2=C(O)CC(C)(C)CC2=O)=C(O)C1
 : nt, -3.0, nt, 2.6, -1%, 0.71, 3.3
COc1ccc2nc(NC(=O)C34CC5CC(CC(NC(C)=O)(C5)C3)C4)sc2c1
 : -5.7, -1.2, i, 4.3, nt, 0.66, 3.2
OCCCNc1ncnc2c1ncn2[C@H]1CN(Cc2ccc(-c3ccccc3)cc2)C[C@@H](CO)O1
 : 12, 2.4, i, nt, nt, nt, nt

Following part:
Each structure is followed by: MLL AF4-AF9 inh, HNF4A DNA FP, FGF22 binding, UCH37 DUB inh, Vif A3G, Ecoli growth, RanGTP-Imp inh
N=c1occ(C(=O)c2cc(F)ccc2O)cc1C(=O)NC1CCCCC1
 : -0.7, 1.4, nt, 3.5, -5%, 0.65, 2.3
Cc1ccc(S(=O)(=O)N2CCN(C)CC2)c(C)c1N(C)S(=O)(=O)c1ccc(Cl)cc1
 : nt, -1.6, nt, 2.7, 27%, 0.7, 0.1
CC(=O)Oc1cccc(N2C(=O)C3CC=C(Cl)CC3C2=O)c1 (centres undefined)
 : nt, -0.3, nt, -1.4, 7%, 0.64, 1.8
O=C(NN1C(=O)C2C3c4ccccc4C(c4ccccc43)C2C1=O)c1ccc(Cl)cc1 (centres undefined)
 : -3.5, 2.2, i, 2.8, nt, 0.71, ?
CCN(Cc1ccccc1)C(=O)CN1C(=O)c2ccccc2S1(=O)=O
 : 0.4, 0.0, i, -1.9, 0%, 0.67, -2.9
Cc1nc(-c2cccc(NC(=O)COc3ccc(Cl)cc3)c2)cs1
 : -0.9, 0.9, i, 4.3, nt, 0.65, 2.1
O=C(NN1C(=O)C2C3C=CC(C3)C2C1=O)c1ccccc1 (centres undefined)
 : -3.9, -2.1, i, 3.3, 30%, 0.71, ?
CN(Cc1c(C(=O)N/N=C/c2cc(F)ccc2F)nnn1-c1nonc1N)C1CCCCC1
 : -1.5, 0.5, i, nt, 0%, nt, ?
CC(C)[C@H](NC(=O)C1CCN(S(=O)(=O)c2ccccc2)CC1)C(=O)NCc1ccncc1
 : -9.2, 0.6, i, 4.8, -9%, 0.71, -2.8
Cc1ccn2c(Cc3ccccc3)c(-c3ccccc3)nc2c1
 : 2.4, -5.1, i, nt, 6%, nt, nt
Cc1cnc(NC(=O)COc2ccc3c(c2)CCC3)s1
 : -0.9, -0.6, i, -0.1, nt, 0.7, 2.7
O=C(NCCc1ccccc1)C1CCN(C(=O)c2sccc2-n2cccc2)CC1
 : 2.6, 0.6, i, 3.0, -5%, 0.69, 0.7
O=C1CSc2ccc(C(=O)NCc3ccccn3)cc2N1
 : -1.2, 0.1, i, 1.5, nt, 0.62, nt
CCN(CC)S(=O)(=O)c1ccc(Oc2ccccc2)c(N)c1
 : 0.7, 4.3, i, 2.1, 10%, 0.65, 1.8
O=S(=O)(Nc1cccc(-n2cnnn2)c1)c1cc(Cl)ccc1Cl
 : -11, -0.5, i, 1.1, nt, 0.71, 5.5

By substructure, those above with a nitro group on carbon
Each structure is followed by: MLL AF4-AF9 inh, HNF4A DNA FP, FGF22 binding, UCH37 DUB inh, Vif A3G, Ecoli growth, RanGTP-Imp inh
CC(=O)Nc1ccc(NC(=O)C(C)n2nc(C)c([N+](=O)[O-])c2C)cc1 (centres undefined)
 : 2.9, 1.5, i, 3.3, 3%, 0.68, -3.7
CCOC(=O)N/N=C(/C)c1ccc([N+](=O)[O-])o1
 : 2.4, 2.7, i, nt, 1%, nt, 6.1
